Screens (PubChem)
Glioma ERSR ind – ER stress response induction in glioma; AID 602332; Potency, µM, for inactives: at the highest dose activation, most hits filed as activators; 420,000 compounds, 0.02% hits; U87-MG GRP78 promoter luciferase reporter, 16 h; further: potency means the concentration at half of the fitted maximal effect; series mostly up to about 76 µM; % of control where 0% means no effect; nearly all actives have a fitted effect of over 35% in size
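ERSR induction read as luciferase luminescence (Bright-Glo, 10 min at room temperature) in stably transfected human U87-MG glioma cells exposed to compounds for 16 h, using GRP78 as sensor.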
D1 PAM – enhances dopamine response at the human D1 receptor; P21728; HEK293 TREx D1 cells, calcium flux, dopamine EC20 potentiation; potentiation, % at 10 µM; 360,000 compounds, 0.036% hits; AID 504651; in the data active means potentiation above about 30%; further: 0% is about no effect
Target sequence (P21728 whole entry, looked up): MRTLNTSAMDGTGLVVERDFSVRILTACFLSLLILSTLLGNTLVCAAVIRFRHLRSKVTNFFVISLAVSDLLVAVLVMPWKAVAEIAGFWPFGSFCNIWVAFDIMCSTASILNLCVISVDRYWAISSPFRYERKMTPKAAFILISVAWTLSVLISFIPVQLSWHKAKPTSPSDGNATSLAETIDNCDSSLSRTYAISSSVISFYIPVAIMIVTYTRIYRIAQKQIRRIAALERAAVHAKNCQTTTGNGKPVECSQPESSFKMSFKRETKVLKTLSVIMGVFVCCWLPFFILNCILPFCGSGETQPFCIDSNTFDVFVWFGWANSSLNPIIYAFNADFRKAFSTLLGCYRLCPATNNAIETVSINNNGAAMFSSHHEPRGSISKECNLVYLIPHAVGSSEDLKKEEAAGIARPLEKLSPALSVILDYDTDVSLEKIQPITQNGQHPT
LDHA block – blocks human lactate dehydrogenase A. activity change, % (values are at about 110 or 230 µM). 480,000 compounds, 0.15% hits. purified LDHA, NADH/diaphorase-resazurin fluorescence; hits give low values; in the data active means activity change below about -30%; inconclusive means mostly about -25% to -30%;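 further: plate controls were DMSO wells for no effect and wells without enzyme for full effect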
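Remaining NADH was detected by diaphorase (0.133 mg/mL) converting 37 µM resazurin to fluorescent resorufin, read at 0 and 20 minutes. The preceding 5-minute room-temperature reaction used 2 nM LDHA, 0.2 mM sodium pyruvate and 0.06 mM NADH at pH 7.4.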
Vif-A3G inh – blocks the Vif interaction with human APOBEC3G. AID 602310. Potency, µM (top dose mostly 46.1 µM), for the others: top-dose activity, negative = active, actives largely listed as inhibitors. Q9HC16. 410,000 compounds, 0.076% hits. HeLa A3G-eYFP + Vif (tagged APOBEC3G with the HIV-1 protein that degrades it), YFP fluorescence, overnight;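 further: potency means the concentration at half of the fitted maximal effect; on the % scale 0 is the no-effect control and ±100 the full control effect; nearly all actives have a fitted effect of over 60% in size; hits raise eYFP signal because A3G escapes Vif-driven loss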
Target sequence (Q9HC16 whole entry, looked up): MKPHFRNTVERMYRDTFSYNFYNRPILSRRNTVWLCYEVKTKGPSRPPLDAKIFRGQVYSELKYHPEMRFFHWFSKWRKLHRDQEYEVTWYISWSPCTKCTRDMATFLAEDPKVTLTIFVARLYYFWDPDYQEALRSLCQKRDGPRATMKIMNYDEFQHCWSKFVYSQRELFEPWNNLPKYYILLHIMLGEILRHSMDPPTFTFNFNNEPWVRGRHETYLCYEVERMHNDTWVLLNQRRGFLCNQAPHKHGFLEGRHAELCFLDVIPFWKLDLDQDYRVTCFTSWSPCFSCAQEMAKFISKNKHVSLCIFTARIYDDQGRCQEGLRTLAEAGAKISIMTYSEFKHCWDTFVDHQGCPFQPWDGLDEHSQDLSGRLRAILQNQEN
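Read-out is eYFP fluorescence (Ex 488/Em 500-530) from Vif-expressing HeLa A3G-eYFP cells; more signal means A3G escaped Vif-mediated degradation. Cells plated overnight, compound pinned in, incubated overnight at 37 deg C.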
D1 agonist – human D1 receptor agonism | P21728 | HEK293 T-REx D1 cells, calcium flux, agonist mode | activation, % at 2 µM | 360,000 compounds, 1% hits | AID 504660; in the data active means activation above about 30%; further: 0% is about no effect
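Agonism was scored from calcium flux recorded over 180 s (1 read/s) after pintool compound addition, following a 10-cycle baseline. Cells were inducible force-coupled HEK293 TREx D1, plated overnight at 30 C and loaded with no-wash calcium dye.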
D2 potentiator – D2 dopamine receptor (human) potentiation | P14416 | HEK293 T-REx D2, calcium flux, EC20 dopamine potentiation | potentiation, % at 10 µM | 340,000 compounds, 0.34% hits | AID 485347;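 active means potentiation over 3 SD above the plate norm, cut at about 30% in these data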; further: 0% is about no effect
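Calcium flux readout, no-wash dye, 1 read/s. Inducible HEK293 Trex D2 line, overnight 30 C. Compound alone 180 s (agonist flags), then EC20 dopamine, another 180 s to score potentiation.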
D1 antagonist – blocks dopamine activation of the human D1 receptor | P21728 | HEK293 TREx D1 cells, calcium flux, dopamine EC80; hits give low values | activity change, negative = inhibition, % at 10 µM | 360,000 compounds, 3.2% hits; in the data active means activity change below about -30%; further: on the % scale 0 is the no-effect control and ±100 the full control effect
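Using tetracycline-induced force-coupled D1 Hek293 cells and a calcium dye, signals were followed for 180 s after compound, then for 180 s after EC80 dopamine, to detect inhibitors.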
Vif-A3F inh – blocks the Vif interaction with APOBEC3F | HeLa A3F-eYFP + Vif (tagged APOBEC3F with the HIV-1 protein that degrades it), YFP fluorescence increase | Potency, µM (top dose mostly 46.1 µM), for inactives: at the top dose activity, negative = active | 390,000 compounds, 0.2% hits; further: potency means the concentration at half of the fitted maximal effect; % of control where 0% means no effect; nearly all actives have a fitted effect of over 65% in size
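HeLa cells stably expressing Vif plus C-terminally eYFP-tagged A3F were seeded, incubated overnight at 37 deg C, dosed with compound, incubated overnight again at 37 deg C. Yellow fluorescence (Ex 488/Em 500-530) reported blocked Vif-mediated A3F-eYFP degradation.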
* hit, by the source's call; ? = inconclusive; . = no result given; & = joins results of further samples. Unless noted, the call rests on the fitted dose curve; in most records, active means well fitted curve in the direction sought with a large enough effect; inconclusive means small, poorly fitted or top-dose-only effect, or another doubt; inactive means no such curve, though single readings can be large; an effect the other way counts as inactive or inconclusive.

[1] COc1cc([N+](=O)[O-])c(OC)cc1SCc1n[nH]c(=S)n1-c1ccc(F)cc1
[2] CN(CC(=O)Nc1cccc(F)c1)C(=O)c1cccnc1Sc1ccc(Cl)cc1
[3] C/C(=N\NC(=O)c1ccc(NS(=O)(=O)c2cccs2)cc1)c1ccc(Cl)cc1
[4] Cc1ccc2c(=O)c(C(=O)c3ccccc3)cn(CC(=O)NCc3ccccc3)c2n1
[5] CCOC(=O)CSc1ccc2nnc(-c3ccccc3)n2n1
[6] CCc1cccc(C)c1NC(=O)CSc1nc2ccccc2nc1Cc1ccccc1
[7] Cc1ccc(N(C(=O)c2csnn2)C(C(=O)NC2CCCC2)c2ccccn2)cc1 (centres undefined)
[8] CCN(CC)CC(=O)N1c2ccccc2Oc2c(c(=O)n(C)c(=O)n2C)C1c1cccc([N+](=O)[O-])c1 (centres undefined)

| Compound | 1 | 2 | 3 | 4 | 5 | 6 | 7 | 8 |
| --- | --- | --- | --- | --- | --- | --- | --- | --- |
| Glioma ERSR ind | 1% | -3% | -1% | -1% | -4% | -2% | -1% | 9% |
| D1 antagonist | -9 | -2 | 12 | -18 | 33 | 5 | -4 | 8 |
| D1 agonist | 3 | -1 | 1 | 1 | 2 | 2 | 0 | 3 |
| Vif-A3G inh | -2% | 0% | -1% | -16% | 5% | -2% | -2% | 0% |
| Vif-A3F inh | 1% | 1% | 5% | 3% | 3% | -6% | -1% | -2% |
| D2 potentiator | 6 | 3 | 0 | -7 | -1 | -4 | -10 | 5 |
| D1 PAM | 8 | 2 | -2 | -6 | -6 | 0 | 6 | 0 |
| LDHA block | 1 | -4 | -2 | -5 | -6 | 0 | -6 | 2 |

[9] Oc1ccc(N2CCN(C(c3ccncc3)c3nnnn3C3CCCC3)CC2)cc1 (centres undefined)
[10] Cc1ccc(-c2cnc(NC(=O)CCC(=O)N(C)Cc3ccccc3)n2C)cc1
[11] CCc1ccc2c(c1)c(=O)c(C(=O)c1ccc(C)cc1)cn2CC(=O)Nc1ccccc1C
[12] CSc1sc(C(=O)NNC(C)=O)c2c1C=CCC2
[13] CN(CC(=O)Nc1cccc(F)c1)C(=O)c1cn2ccccc2n1
[14] Cc1nc(SCCCSc2n[nH]c(C)n2)n[nH]1
[15] CCC1CCCCN1CCn1c(=S)[nH]c2cc(OC)c(OC)cc2c1=O (centres undefined)
[16] COCCn1nnnc1C(c1cc2cc(C)ccc2[nH]c1=O)N1CCc2ccccc21 (centres undefined)

| Compound | 9 | 10 | 11 | 12 | 13 | 14 | 15 | 16 |
| --- | --- | --- | --- | --- | --- | --- | --- | --- |
| Glioma ERSR ind | -2% | -1% | -1% | -5% | -2% | -2% | -1% | 0% |
| D1 antagonist | 12 | -1 | 4 | -10 | 3 | 10 | 8 | -14 |
| D1 agonist | 1 | 0 | 2 | 4 | 1 | -1 | 0 | 2 |
| Vif-A3G inh | -1% | -1% | -3% | 1% | -9% | -5% | 1% | 0% |
| Vif-A3F inh | -9% | -4% | -24% | 6% | 2% | . | -19% | -3% |
| D2 potentiator | 16 | -4 | -27 | 10 | -7 | 26 | -11 | 1 |
| D1 PAM | -2 | -4 | 0 | -3 | -2 | -4 | -8 | 5 |
| LDHA block | 13 | 0 | -3 | 6 | -6 | -1 | -9 | 3 |

A draw from above in order of count of non-hydrogen atoms, ascending.
[14] Cc1nc(SCCCSc2n[nH]c(C)n2)n[nH]1
[12] CSc1sc(C(=O)NNC(C)=O)c2c1C=CCC2
[5] CCOC(=O)CSc1ccc2nnc(-c3ccccc3)n2n1
[13] CN(CC(=O)Nc1cccc(F)c1)C(=O)c1cn2ccccc2n1
[15] CCC1CCCCN1CCn1c(=S)[nH]c2cc(OC)c(OC)cc2c1=O (centres undefined)
[1] COc1cc([N+](=O)[O-])c(OC)cc1SCc1n[nH]c(=S)n1-c1ccc(F)cc1
[2] CN(CC(=O)Nc1cccc(F)c1)C(=O)c1cccnc1Sc1ccc(Cl)cc1
[7] Cc1ccc(N(C(=O)c2csnn2)C(C(=O)NC2CCCC2)c2ccccn2)cc1 (centres undefined)
[6] CCc1cccc(C)c1NC(=O)CSc1nc2ccccc2nc1Cc1ccccc1
[11] CCc1ccc2c(c1)c(=O)c(C(=O)c1ccc(C)cc1)cn2CC(=O)Nc1ccccc1C

| Compound | 14 | 12 | 5 | 13 | 15 | 1 | 2 | 7 | 6 | 11 |
| --- | --- | --- | --- | --- | --- | --- | --- | --- | --- | --- |
| Glioma ERSR ind | -2% | -5% | -4% | -2% | -1% | 1% | -3% | -1% | -2% | -1% |
| D1 antagonist | 10 | -10 | 33 | 3 | 8 | -9 | -2 | -4 | 5 | 4 |
| D1 agonist | -1 | 4 | 2 | 1 | 0 | 3 | -1 | 0 | 2 | 2 |
| Vif-A3G inh | -5% | 1% | 5% | -9% | 1% | -2% | 0% | -2% | -2% | -3% |
| Vif-A3F inh | . | 6% | 3% | 2% | -19% | 1% | 1% | -1% | -6% | -24% |
| D2 potentiator | 26 | 10 | -1 | -7 | -11 | 6 | 3 | -10 | -4 | -27 |
| D1 PAM | -4 | -3 | -6 | -2 | -8 | 8 | 2 | 6 | 0 | 0 |
| LDHA block | -1 | 6 | -6 | -6 | -9 | 1 | -4 | -6 | 0 | -3 |

[8] CCN(CC)CC(=O)N1c2ccccc2Oc2c(c(=O)n(C)c(=O)n2C)C1c1cccc([N+](=O)[O-])c1 (centres undefined)

| Compound | 8 |
| --- | --- |
| Glioma ERSR ind | 9% |
| D1 antagonist | 8 |
| D1 agonist | 3 |
| Vif-A3G inh | 0% |
| Vif-A3F inh | -2% |
| D2 potentiator | 5 |
| D1 PAM | 0 |
| LDHA block | 2 |

Other structures follow.
[17] Cn1ncc2nnn(-c3ccccc3)c(=O)c21
[18] CCOc1ccccc1OCC(=O)Nc1cccc(S(=O)(=O)NC2=NCCCCC2)c1
[19] CCn1c(COc2ccc(Cl)cc2)nnc1SCC(=O)Nc1ccc2c(c1)OCO2
[20] O=C(CSc1ncnc2c1oc1ccccc12)Nc1cccc(F)c1
[21] CCc1nc(SCC(N)=O)c2c(=O)n(C)c(=O)n(C)c2n1
[22] CC(Oc1ccccc1)C(=O)Nc1ccc(NC(=O)c2ccccc2)cc1 (centres undefined)
[23] O=C(Nc1ccccc1C(=O)O)c1cccc(NC(=O)c2ccc(Br)o2)c1
[24] CCCCNC(=O)CCC(=O)Nc1ncc(-c2ccc(C)cc2)n1C

| Compound | 17 | 18 | 19 | 20 | 21 | 22 | 23 | 24 |
| --- | --- | --- | --- | --- | --- | --- | --- | --- |
| Glioma ERSR ind | -4% | -2% | -5% | -6% | -5% | -7% | -6% | 0% |
| D1 antagonist | -5 | -2 | -19 | -27 | -4 | -1 | 5 | -10 |
| D1 agonist | 1 | 2 | 5 | 9 | 3 | 4 | 0 | 0 |
| Vif-A3G inh | 0% | 0% | 0% | 2% | 1% | 1% | -10% | -1% |
| Vif-A3F inh | -4% | -9% | 6% | 3% | 1% | -1% | . | 0% |
| D2 potentiator | -13 | 11 | . | 0 | 18 | -1 | 4 | 14 |
| D1 PAM | 0 | 1 | -13 | -5 | 6 | 2 | 6 | -5 |
| LDHA block | -4 | -1 | -6 | -15 | 2 | -7 | 5&-12 | 0 |

One compound at a time, from the list above. Order of screens: Glioma ERSR ind | D1 antagonist | D1 agonist | Vif-A3G inh | Vif-A3F inh | D2 potentiator | D1 PAM | LDHA block
Cn1ncc2nnn(-c3ccccc3)c(=O)c21 is listed with -4% | -5 | 1 | 0% | -4% | -13 | 0 | -4
CN(CC(=O)Nc1cccc(F)c1)C(=O)c1cccnc1Sc1ccc(Cl)cc1 is listed with -3% | -2 | -1 | 0% | 1% | 3 | 2 | -4

Next part.
[25] CC(C)(C)c1ccc(OCC(=O)NNC(=O)c2cccnc2)cc1
[26] O=C(Cn1c(=O)n(Cc2ccccc2)c(=O)c2ccccc21)NCc1ccco1
[27] COc1ccc(Cn2c(=S)[nH]c3cc(OC)c(OC)cc3c2=O)cc1
[28] C=CCn1c(CNC(=O)c2ccccc2F)nnc1SCc1nc2ccccc2c(=O)[nH]1

| Compound | 25 | 26 | 27 | 28 |
| --- | --- | --- | --- | --- |
| Glioma ERSR ind | -1% | 0% | 6% | -2% |
| D1 antagonist | 2 | -6 | 10 | 9 |
| D1 agonist | 5 | 1 | 3 | 0 |
| Vif-A3G inh | 3% | 0% | -6% | -1% |
| Vif-A3F inh | 8% | . | ? | 1% |
| D2 potentiator | -6 | -1 | 5 | 38* |
| D1 PAM | -2 | -8 | 8 | 3 |
| LDHA block | -6 | 0 | -1 | 0 |

Not all compounds are listed, so the mix of outcomes need not match the whole.
